Assay outcomes as filed in PubChem BioAssay.
Ran importin: RanGTP/importin-beta interaction disruptors – biochemical, CFP-Ran/YFP-importin-beta FRET, RCC1, cell-free, primary screen (AID 434961); CFP-Ran/YFP-importin-beta FRET, cell-free; stronger effect = higher value; inhibition, %; 7,700 tested, 0.2% active;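 active means more than half of the replicate wells above 15% inhibition; inconclusive means exactly half above it; inactive means fewer than half above it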;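 further: 0% = DMSO wells and 100% inhibition = RanGDP control wells on each plate; stock of unstated strength diluted about 400-fold; mean of two wells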
* = called active by the depositor.

Results for C[C@@H]1CN([C@H](C)CO)C(=O)c2cc(NC(=O)CCCN(C)C)ccc2O[C@@H]1CN(C)Cc1ccc(C(=O)O)cc1 ?
Ran importin: -1.5

What do the screens show for `COc1ccc(S(=O)(=O)N(C)C[C@@H]2Oc3ccc(NC(=O)Nc4ccc(C(F)(F)F)cc4)cc3C(=O)N([C@H](C)CO)C[C@@H]2C)cc1`?
Ran importin: 3.3

What do the screens show for `CC(C)NC(=O)N(C)C[C@H]1Oc2ccc(NC(=O)C3CC3)cc2C(=O)N([C@@H](C)CO)C[C@H]1C`?
Ran importin: 4.5

How did C[C@H]1CN([C@@H](C)CO)C(=O)c2cccc(NS(C)(=O)=O)c2O[C@@H]1CN(C)C(=O)Nc1ccc(C(F)(F)F)cc1 do in these assays?
Ran importin: 4.4

What do the screens show for `C[C@@H]1CN([C@@H](C)CO)C(=O)Cc2cc(NC(=O)Nc3cccc4ccccc34)ccc2O[C@@H]1CN(C)S(=O)(=O)c1cccs1`?
Ran importin: 2.6

How did C[C@H]1CN([C@@H](C)CO)C(=O)Cc2cc(NC(=O)C3CC3)ccc2O[C@H]1CN(C)Cc1ccncc1 do in these assays?
Ran importin: -3.9

Results for C[C@H](CO)N1C[C@H](C)[C@H](CN(C)S(=O)(=O)c2ccccc2)OCCCC[C@H](C)Oc2ccc(N(C)C)cc2C1=O ?
Ran importin: -2.4

How did Cc1noc(C)c1S(=O)(=O)Nc1ccc2c(c1)C(=O)N([C@H](C)CO)C[C@H](C)[C@@H](CN(C)C(=O)c1ccncc1)OCCCC[C@@H](C)O2 do in these assays?
Ran importin: -2.8

How did C[C@@H]1CN([C@H](C)CO)C(=O)c2cccc(NS(=O)(=O)c3cn(C)cn3)c2O[C@H]1CN(C)CC1CC1 do in these assays?
Ran importin: 1.3

Results for C[C@@H]1CN([C@@H](C)CO)C(=O)c2cc(NS(=O)(=O)c3ccccc3)ccc2O[C@@H](C)CCCCO[C@@H]1CN(C)C(=O)CCC(F)(F)F ?
Ran importin: -4.3

What do the screens show for `C[C@@H]1CN([C@H](C)CO)C(=O)CCCn2nncc2CO[C@H]1CN(C)C`?
Ran importin: 4.1

How did CNC[C@@H]1OCCCC[C@@H](C)Oc2ccc(N)cc2C(=O)N([C@H](C)CO)C[C@H]1C do in these assays?
Ran importin: 0.8

How did C[C@H]1CN([C@@H](C)CO)C(=O)c2cccc(N(C)C)c2O[C@@H]1CN(C)Cc1ccccc1 do in these assays?
Ran importin: -0.1

What do the screens show for `C[C@@H]1CCCCO[C@H](CN(C)C(=O)c2ccncc2)[C@@H](C)CN([C@@H](C)CO)C(=O)c2cc(NS(C)(=O)=O)ccc2O1`?
Ran importin: 5.9

Results for COc1ccc(S(=O)(=O)N(C)C[C@@H]2Oc3ccc(NC(=O)CCC(F)(F)F)cc3C(=O)N([C@@H](C)CO)C[C@@H]2C)cc1 ?
Ran importin: 1.4

Results for C[C@@H]1CN([C@@H](C)CO)C(=O)Cc2cc(NC(=O)C3CC3)ccc2O[C@@H]1CN(C)C(=O)Nc1cccc2ccccc12 ?
Ran importin: -1.0

How did Cc1noc(C)c1NC(=O)N(C)C[C@H]1OCc2cn(nn2)CCCC(=O)N([C@@H](C)CO)C[C@H]1C do in these assays?
Ran importin: -1.6

Results for C[C@H](CO)N1C[C@H](C)[C@H](CN(C)Cc2ccc(Oc3ccccc3)cc2)Oc2c(NC(=O)c3ccncc3)cccc2C1=O ?
Ran importin: -4.6

How did COc1ccc(CN(C)C[C@@H]2Oc3ccc(NS(=O)(=O)c4ccc(Cl)cc4)cc3C(=O)N([C@H](C)CO)C[C@H]2C)cc1 do in these assays?
Ran importin: 1.4

What do the screens show for `CNC[C@H]1Oc2ccc(NS(C)(=O)=O)cc2CC(=O)N([C@H](C)CO)C[C@H]1C`?
Ran importin: -3.0

How did C[C@H](CO)N1C[C@H](C)[C@H](CN(C)C(=O)Nc2ccccc2)OCCCC[C@H](C)Oc2ccc(NC(=O)c3ccncc3)cc2C1=O do in these assays?
Ran importin: 2.0

What do the screens show for `C[C@@H]1CN([C@@H](C)CO)C(=O)c2cccc(NC(=O)C3CCOCC3)c2O[C@@H]1CN(C)S(=O)(=O)c1cn(C)cn1`?
Ran importin: 5.7

Results for CNC[C@H]1Oc2ccc(NC(=O)Cc3cn(C)c4ccccc34)cc2CC(=O)N([C@@H](C)CO)C[C@H]1C ?
Ran importin: 2.4

How did Cc1noc(C)c1NC(=O)N(C)C[C@@H]1Oc2ccc(NC(=O)Cc3ccccc3)cc2C(=O)N([C@@H](C)CO)C[C@H]1C do in these assays?
Ran importin: 6.1

How did Cc1noc(C)c1NC(=O)Nc1ccc2c(c1)CC(=O)N([C@H](C)CO)C[C@@H](C)[C@@H](CN(C)S(=O)(=O)c1cccs1)O2 do in these assays?
Ran importin: -0.4

Results for C[C@@H]1CN([C@H](C)CO)C(=O)c2cc(NC(=O)Nc3ccccc3)ccc2O[C@@H](C)CCCCO[C@H]1CN(C)C ?
Ran importin: 1.0

How did C[C@H]1CN([C@@H](C)CO)C(=O)c2cc(NS(=O)(=O)c3cn(C)cn3)ccc2O[C@@H]1CN(C)Cc1ccccc1 do in these assays?
Ran importin: -0.4

What do the screens show for `C[C@@H]1CN([C@H](C)CO)C(=O)c2cc(NS(C)(=O)=O)ccc2O[C@H]1CN(C)Cc1ccccc1`?
Ran importin: 5.2

How did CNC[C@H]1OCc2cn(nn2)CCCC(=O)N([C@H](C)CO)C[C@H]1C do in these assays?
Ran importin: -0.8

How did C[C@H]1CN([C@@H](C)CO)C(=O)c2cccc(NS(=O)(=O)c3ccccc3)c2O[C@H]1CN(C)C(=O)Nc1cccc2ccccc12 do in these assays?
Ran importin: -1.4

Results for COc1ccc(S(=O)(=O)N(C)C[C@@H]2Oc3c(NC(=O)Nc4cccc5ccccc45)cccc3C(=O)N([C@H](C)CO)C[C@H]2C)cc1 ?
Ran importin: inconclusive

How did COC(=O)N(C)C[C@H]1OCc2cn(nn2)CCCC(=O)N([C@H](C)CO)C[C@@H]1C do in these assays?
Ran importin: -1.6

How did C[C@@H]1CCCCO[C@@H](CN(C)C(=O)Nc2ccccc2)[C@H](C)CN([C@H](C)CO)C(=O)c2cc(NC(=O)CCC(F)(F)F)ccc2O1 do in these assays?
Ran importin: -3.4

Results for C[C@H]1CN([C@@H](C)CO)C(=O)c2cccc(NC(=O)c3ccncc3)c2O[C@H]1CN(C)C(=O)Nc1cccc2ccccc12 ?
Ran importin: 3.3

Results for C[C@@H]1CCCCO[C@H](CN(C)S(=O)(=O)c2ccccc2)[C@@H](C)CN([C@@H](C)CO)C(=O)c2cc(NC(=O)Nc3ccccc3)ccc2O1 ?
Ran importin: -3.3

How did C[C@H]1CN([C@@H](C)CO)C(=O)CCCn2cc(nn2)CO[C@H]1CN(C)Cc1ccc2cccnc2c1 do in these assays?
Ran importin: 3.7

The final 2 compounds of the section before are carried over, then new ones follow:
Results for C[C@@H]1CCCCO[C@H](CN(C)S(=O)(=O)c2ccccc2)[C@@H](C)CN([C@@H](C)CO)C(=O)c2cc(NC(=O)Nc3ccccc3)ccc2O1 ?
Ran importin: -3.3

How did C[C@H]1CN([C@@H](C)CO)C(=O)CCCn2cc(nn2)CO[C@H]1CN(C)Cc1ccc2cccnc2c1 do in these assays?
Ran importin: 3.7

How did C[C@@H]1CN([C@@H](C)CO)C(=O)c2cccc(NC(=O)c3ccc(-c4nccs4)cc3)c2O[C@@H]1CN(C)C(=O)Nc1ccccc1 do in these assays?
Ran importin: -7.7

Results for C[C@H](CO)N1C[C@H](C)[C@H](CN(C)C(=O)NC2CCCCC2)Oc2c(NC(=O)Nc3cccc4ccccc34)cccc2C1=O ?
Ran importin: -4.4

Results for COc1ccc(S(=O)(=O)Nc2ccc3c(c2)C(=O)N([C@H](C)CO)C[C@@H](C)[C@@H](CN(C)Cc2ccncc2)O3)cc1 ?
Ran importin: 0.6

How did C[C@H](CO)N1C[C@H](C)[C@@H](CN(C)C(=O)Nc2ccc(C(F)(F)F)cc2)Oc2ccc(NC(=O)NC3CCCCC3)cc2CC1=O do in these assays?
Ran importin: 0.0

How did Cc1noc(C)c1NC(=O)N(C)C[C@@H]1Oc2c(NS(=O)(=O)c3cn(C)cn3)cccc2C(=O)N([C@H](C)CO)C[C@H]1C do in these assays?
Ran importin: -3.5

What do the screens show for `C[C@@H]1CN([C@H](C)CO)C(=O)c2cccc(NS(=O)(=O)c3cccs3)c2O[C@@H]1CN(C)Cc1ccc(C(F)(F)F)cc1`?
Ran importin: -1.3

What do the screens show for `COc1ccc(S(=O)(=O)Nc2ccc3c(c2)CC(=O)N([C@H](C)CO)C[C@@H](C)[C@@H](CN(C)CC2CC2)O3)cc1`?
Ran importin: 0.3

How did C[C@@H]1CN([C@@H](C)CO)C(=O)c2cc(NC(=O)NC3CCCCC3)ccc2O[C@@H]1CN(C)S(=O)(=O)c1cn(C)cn1 do in these assays?
Ran importin: inconclusive

What do the screens show for `C[C@@H]1CN([C@H](C)CO)C(=O)Cc2cc(NC(=O)C3CC3)ccc2O[C@H]1CN(C)C(=O)Nc1ccc(F)cc1`?
Ran importin: -0.1

What do the screens show for `Cc1ccc(S(=O)(=O)Nc2ccc3c(c2)CC(=O)N([C@@H](C)CO)C[C@H](C)[C@@H](CN(C)Cc2ccncc2)O3)cc1`?
Ran importin: inconclusive

What do the screens show for `C[C@@H]1CN([C@H](C)CO)C(=O)c2cccc(NC(=O)NC3CCCCC3)c2O[C@@H]1CN(C)S(=O)(=O)c1cn(C)cn1`?
Ran importin: 1.2

How did C[C@@H]1CCCCO[C@H](CN(C)C(=O)CCC(F)(F)F)[C@H](C)CN([C@@H](C)CO)C(=O)c2cc(NC(=O)Cc3ccccc3)ccc2O1 do in these assays?
Ran importin: -3.1

How did C[C@H]1CN([C@@H](C)CO)C(=O)c2cccc(NS(=O)(=O)c3ccc(Cl)cc3)c2O[C@@H]1CN(C)Cc1ccncc1 do in these assays?
Ran importin: 5.1

What do the screens show for `C[C@@H]1CN([C@H](C)CO)C(=O)Cc2cc(NC(=O)Cn3cnnn3)ccc2O[C@H]1CN(C)C(=O)Nc1ccccc1`?
Ran importin: -0.2

Results for C[C@@H]1CN([C@H](C)CO)C(=O)c2cc(NC(=O)NC3CCCCC3)ccc2O[C@@H]1CN(C)S(=O)(=O)c1cccs1 ?
Ran importin: -6.3

How did COc1ccc(S(=O)(=O)Nc2cccc3c2O[C@H](CN(C)S(=O)(=O)c2cccs2)[C@H](C)CN([C@@H](C)CO)C3=O)cc1 do in these assays?
Ran importin: 5.1

Results for COc1ccc(S(=O)(=O)N(C)C[C@H]2Oc3ccc(NC(=O)CCCN(C)C)cc3C(=O)N([C@@H](C)CO)C[C@@H]2C)cc1 ?
Ran importin: -1.2

Results for COc1ccc(S(=O)(=O)N(C)C[C@H]2Oc3ccc(NC(=O)CCCN(C)C)cc3C(=O)N([C@H](C)CO)C[C@@H]2C)cc1 ?
Ran importin: 1.1

What do the screens show for `C[C@@H]1CN([C@H](C)CO)C(=O)Cc2cc(NC(=O)NC3CCCCC3)ccc2O[C@H]1CN(C)Cc1ccncc1`?
Ran importin: 0.8

Results for Cc1noc(C)c1NC(=O)N(C)C[C@H]1Oc2ccc(NC(=O)NC(C)C)cc2CC(=O)N([C@H](C)CO)C[C@@H]1C ?
Ran importin: 1.9

Results for C[C@H](CO)N1C[C@H](C)[C@@H](CN(C)S(=O)(=O)c2ccccc2)Oc2ccc(NC(=O)CCN3CCOCC3)cc2CC1=O ?
Ran importin: 0.2

What do the screens show for `CC(C)NC(=O)N(C)C[C@@H]1Oc2ccc(N(C)C)cc2CC(=O)N([C@H](C)CO)C[C@@H]1C`?
Ran importin: -0.7

Results for Cc1noc(C)c1NC(=O)N(C)C[C@H]1Oc2c(NC(=O)C3CCOCC3)cccc2C(=O)N([C@H](C)CO)C[C@H]1C ?
Ran importin: 0.0

Results for C[C@@H]1CCCCO[C@@H](CN(C)S(C)(=O)=O)[C@@H](C)CN([C@@H](C)CO)C(=O)c2cc(NS(=O)(=O)c3ccccc3)ccc2O1 ?
Ran importin: 1.0

Brought forward from above: five entries; new compounds follow.
Results for Cc1noc(C)c1NC(=O)N(C)C[C@H]1Oc2ccc(NC(=O)NC(C)C)cc2CC(=O)N([C@H](C)CO)C[C@@H]1C ?
Ran importin: 1.9

Results for C[C@H](CO)N1C[C@H](C)[C@@H](CN(C)S(=O)(=O)c2ccccc2)Oc2ccc(NC(=O)CCN3CCOCC3)cc2CC1=O ?
Ran importin: 0.2

What do the screens show for `CC(C)NC(=O)N(C)C[C@@H]1Oc2ccc(N(C)C)cc2CC(=O)N([C@H](C)CO)C[C@@H]1C`?
Ran importin: -0.7

Results for Cc1noc(C)c1NC(=O)N(C)C[C@H]1Oc2c(NC(=O)C3CCOCC3)cccc2C(=O)N([C@H](C)CO)C[C@H]1C ?
Ran importin: 0.0

Results for C[C@@H]1CCCCO[C@@H](CN(C)S(C)(=O)=O)[C@@H](C)CN([C@@H](C)CO)C(=O)c2cc(NS(=O)(=O)c3ccccc3)ccc2O1 ?
Ran importin: 1.0

What do the screens show for `C[C@H](CO)N1C[C@H](C)[C@H](CN(C)C(=O)Nc2ccccc2)Oc2ncc(C#CC(C)(C)O)cc2C1=O`?
Ran importin: -2.6

Results for C[C@@H]1CN([C@@H](C)CO)C(=O)c2cc(NS(=O)(=O)c3ccccc3)ccc2O[C@@H]1CN(C)C(=O)NC1CCCCC1 ?
Ran importin: -3.2

Results for C[C@@H]1CN([C@H](C)CO)C(=O)Cc2cc(NS(=O)(=O)c3ccccc3)ccc2O[C@@H]1CN(C)S(=O)(=O)c1cccs1 ?
Ran importin: inconclusive

How did Cc1noc(C)c1S(=O)(=O)Nc1ccc2c(c1)C(=O)N([C@@H](C)CO)C[C@H](C)[C@H](CN(C)Cc1ccncc1)OCCCC[C@@H](C)O2 do in these assays?
Ran importin: -1.0

What do the screens show for `C[C@@H]1CN([C@@H](C)CO)C(=O)Cc2cc(NC(=O)Cc3ccccc3)ccc2O[C@H]1CN(C)S(=O)(=O)c1cccs1`?
Ran importin: 3.1

How did C[C@@H]1CN([C@@H](C)CO)C(=O)Cc2cc(NC(=O)CCN3CCOCC3)ccc2O[C@H]1CN(C)S(=O)(=O)c1ccccc1 do in these assays?
Ran importin: -3.2

What do the screens show for `C[C@H]1CN([C@@H](C)CO)C(=O)c2cccc(NC(=O)NC3CCCCC3)c2O[C@@H]1CN(C)Cc1ccc(C(=O)O)cc1`?
Ran importin: -2.7

Only part of the results is shown; count on the stated rates, not on these rows.
